Bioassay records as filed in PubChem BioAssay.
A1 apoptosis 2: A1 inhibition read as caspase activation; 24,000 tested, under 10 active; MEF A1-2A-BIM cells, caspase-Glo luminescence, 3 h; percent of clofoctol response, DMSO zero; caspase activation, % (concentration not given with the values); AID 2465; in the data active means caspase activation above about 5.9%;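 further: wells of about 30 µL received 50 nL stock; the first replicate is given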
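Evaluation: Caspase-3/7 activity from luminescence increase | Assay system: A1-2A-BIM mouse embryonic fibroblasts | Quantity: 2500 MEF cells/well | Medium: RPMI-1640 plus 10% FBS | Detection: Caspase-Glo 3/7 luminescence, 1 h at room temperature | Dosing: 50 nL compound per well, pinned | Timing: Cells settled overnight, compound exposure 3 h at 37 °C, 5% CO2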
* hit, by the source's call.

The first 4 compounds as a preview:
structure | A1 apoptosis 2
Cc1noc(C)c1S(=O)(=O)Nc1ccc2c(c1)C(=O)N([C@@H](C)CO)C[C@@H](C)[C@H](CN(C)C(=O)Nc1cccc3ccccc13)OCCCC[C@H](C)O2 | -1.1
C[C@@H]1CN([C@H](C)CO)C(=O)c2cc(NS(=O)(=O)c3cccs3)ccc2O[C@@H](C)CCCCO[C@@H]1CN(C)C(=O)CCCN(C)C | -1.7
C[C@@H]1CN([C@H](C)CO)C(=O)CCCn2nncc2CO[C@@H]1CN(C)C(=O)Nc1ccc2c(c1)OCO2 | -0.5
Cc1ccc(S(=O)(=O)Nc2ccc3c(c2)CC(=O)N([C@H](C)CO)C[C@@H](C)[C@@H](CN(C)CC2CC2)O3)cc1 | -1.1

The listing, repeating the preview:
structure | A1 apoptosis 2
Cc1noc(C)c1S(=O)(=O)Nc1ccc2c(c1)C(=O)N([C@@H](C)CO)C[C@@H](C)[C@H](CN(C)C(=O)Nc1cccc3ccccc13)OCCCC[C@H](C)O2 | -1.1
C[C@@H]1CN([C@H](C)CO)C(=O)c2cc(NS(=O)(=O)c3cccs3)ccc2O[C@@H](C)CCCCO[C@@H]1CN(C)C(=O)CCCN(C)C | -1.7
C[C@@H]1CN([C@H](C)CO)C(=O)CCCn2nncc2CO[C@@H]1CN(C)C(=O)Nc1ccc2c(c1)OCO2 | -0.5
Cc1ccc(S(=O)(=O)Nc2ccc3c(c2)CC(=O)N([C@H](C)CO)C[C@@H](C)[C@@H](CN(C)CC2CC2)O3)cc1 | -1.1
C[C@H](CO)N1C[C@H](C)[C@@H](CN(C)C(=O)NC2CCCCC2)Oc2ccc(NC(=O)Nc3ccc(C(F)(F)F)cc3)cc2C1=O | -2.5
C[C@@H]1CN([C@@H](C)CO)C(=O)Cc2cc(N(C)C)ccc2O[C@@H]1CN(C)C(=O)Nc1cccc2ccccc12 | -0.2
C[C@H](CO)N1C[C@H](C)[C@@H](CN(C)C(=O)Oc2ccccc2)OCc2cn(nn2)CCCC1=O | 0.3
[N-]=[N+]=Nc1ccc(C[C@H]2C(=O)O[C@@H](Cc3ccccc3)[C@H]3[C@@H]4C=CCCC=C4CN32)cc1 | 0.2

2 entries from above, as labelled records:
> Cc1ccc(S(=O)(=O)Nc2ccc3c(c2)CC(=O)N([C@H](C)CO)C[C@@H](C)[C@@H](CN(C)CC2CC2)O3)cc1
  A1 apoptosis 2: -1.1

> C[C@H](CO)N1C[C@H](C)[C@@H](CN(C)C(=O)NC2CCCCC2)Oc2ccc(NC(=O)Nc3ccc(C(F)(F)F)cc3)cc2C1=O
  A1 apoptosis 2: -2.5

Additional compounds follow.
structure | A1 apoptosis 2
C[C@H]1CN([C@@H](C)CO)C(=O)c2cccc(NC(=O)Nc3ccccc3)c2O[C@@H]1CN(C)C(=O)Nc1cccc2ccccc12 | -0.9
C[C@@H]1CN([C@H](C)CO)C(=O)Cc2cc(NC(=O)C3CC3)ccc2O[C@H]1CN(C)Cc1ccc(Oc2ccccc2)cc1 | 1.3
COc1ccc(S(=O)(=O)N(C)C[C@@H]2Oc3c(NC(=O)c4ccc(-c5nccs5)cc4)cccc3C(=O)N([C@@H](C)CO)C[C@H]2C)cc1 | -0.2
C[C@@H]1CCCCO[C@@H](CN(C)Cc2ccncc2)[C@@H](C)CN([C@@H](C)CO)C(=O)c2cc(NS(=O)(=O)c3ccc(F)cc3)ccc2O1 | 1.0
C[C@H](CO)N1C[C@H](C)[C@@H](CN(C)C(=O)Nc2ccccc2)Oc2ccc(NC(=O)Nc3cccc4ccccc34)cc2C1=O | -0.4
CNC[C@@H]1OCCCC[C@@H](C)Oc2ccc(NC(=O)NC3CCCCC3)cc2C(=O)N([C@H](C)CO)C[C@H]1C | 0.4
Cc1noc(C)c1NC(=O)N(C)C[C@@H]1Oc2ccc(NC(=O)Cc3cn(C)c4ccccc34)cc2C(=O)N([C@H](C)CO)C[C@@H]1C | -0.4
COc1ccc(CN(C)C[C@H]2Oc3c(NC(=O)Nc4ccccc4)cccc3C(=O)N([C@H](C)CO)C[C@@H]2C)cc1 | -1.0
C[C@@H]1CN([C@H](C)CO)C(=O)c2cccc(NC(=O)c3cnccn3)c2O[C@@H]1CN(C)C | 1.0
COc1ccc(S(=O)(=O)N(C)C[C@H]2Oc3c(NC(=O)C4CC4)cccc3C(=O)N([C@@H](C)CO)C[C@@H]2C)cc1 | -0.6
C[C@H](CO)N1C[C@H](C)[C@H](CN(C)C(=O)Nc2cccc3ccccc23)Oc2ccc(NS(C)(=O)=O)cc2CC1=O | -1.1
COC(=O)CCCCCCC(=O)N/N=C/[C@H](O)[C@@H](O)[C@@H](O)[C@H](O)CO | 0.4
COc1ccc(NC(=O)Nc2ccc3c(c2)CC(=O)N([C@@H](C)CO)C[C@H](C)[C@H](CN(C)S(=O)(=O)c2ccc(F)cc2)O3)cc1 | -0.2
COc1cc2c(cc1OC)CN(C(=O)[C@@H]1[C@H]3C(=O)O[C@H](c4ccccc4)[C@H](c4ccccc4)N3[C@H](c3ccc(O)cc3)[C@@]13C(=O)Nc1ccccc13)CC2 | -0.2
COc1ccc(S(=O)(=O)Nc2ccc3c(c2)C(=O)N([C@@H](C)CO)C[C@H](C)[C@H](CN(C)C(=O)Cc2ccccc2)OCCCC[C@H](C)O3)cc1 | 0.3
C[C@H]1CN([C@@H](C)CO)C(=O)Cc2cc(NC(=O)CCCN(C)C)ccc2O[C@@H]1CN(C)CC1CCCCC1 | 2.3
Cc1noc(C)c1S(=O)(=O)Nc1ccc2c(c1)C(=O)N([C@@H](C)CO)C[C@@H](C)[C@@H](CN(C)S(=O)(=O)c1ccc(F)cc1)O2 | 0.7
C[C@@H]1CCCCO[C@@H](CN(C)C)[C@@H](C)CN([C@@H](C)CO)C(=O)c2cc(NS(=O)(=O)c3cn(C)cn3)ccc2O1 | -1.2
COc1ccc(CN(C)C[C@H]2Oc3c(NC(=O)NC(C)C)cccc3C(=O)N([C@@H](C)CO)C[C@@H]2C)cc1 | 0.2
Cc1ccccc1CN(C)C[C@H]1OCc2cnnn2CCCC(=O)N([C@H](C)CO)C[C@H]1C | 0.0
C[C@H]1CCCCO[C@@H](CN(C)Cc2ccncc2)[C@@H](C)CN([C@@H](C)CO)C(=O)c2cc(NC(=O)Nc3ccc(F)cc3)ccc2O1 | 1.4
C[C@@H]1CN([C@@H](C)CO)C(=O)c2cc(NC(=O)Nc3cccc4ccccc34)ccc2O[C@@H](C)CCCCO[C@@H]1CN(C)C | -0.7
C[C@H]1CN([C@@H](C)CO)C(=O)Cc2cc(NC(=O)Nc3ccc4c(c3)OCO4)ccc2O[C@H]1CN(C)S(=O)(=O)c1ccc(Cl)cc1 | 1.4
O=C1N(CCS(=O)(=O)c2ccccc2)Cc2ccccc2[C@H]2OC(c3ccc(OCCCO)cc3)=N[C@@]12CCS(=O)(=O)c1ccccc1 | 0.0
C[C@H]1CN([C@@H](C)CO)C(=O)c2cc(NS(=O)(=O)c3ccccc3)ccc2O[C@H]1CN(C)CC1CC1 | 0.5
C[C@@H]1CN([C@H](C)CO)C(=O)c2cc(NC(=O)CCCCCC(=O)Nc3ccccc3N)ccc2O[C@H]1CN(C)S(=O)(=O)c1cn(C)cn1 | 0.0
C[C@@H]1CN([C@@H](C)CO)C(=O)c2cc(NC(=O)Nc3ccccc3)ccc2O[C@@H]1CN(C)Cc1ccc(C(F)(F)F)cc1 | 0.1
Cc1ccc(S(=O)(=O)Nc2ccc3c(c2)C(=O)N([C@H](C)CO)C[C@H](C)[C@H](CN(C)C(=O)Cc2ccccc2)OCCCC[C@H](C)O3)cc1 | -0.4
C[C@@H]1CN([C@H](C)CO)C(=O)Cc2cc(NS(=O)(=O)c3cn(C)cn3)ccc2O[C@@H]1CN(C)C(=O)NC1CCCCC1 | 0.2
C[C@@H]1CN([C@H](C)CO)C(=O)Cc2cc(NC(=O)Nc3cccc4ccccc34)ccc2O[C@@H]1CN(C)Cc1ccc(-c2ccccc2)cc1 | 0.8
C[C@@H]1CN([C@@H](C)CO)C(=O)c2cccc(NC(=O)C3CCCCC3)c2O[C@H]1CN(C)Cc1ccc(C(=O)Nc2ccccc2N)cc1 | 0.7
C[C@@H]1CN([C@H](C)CO)C(=O)c2cc(NC(=O)NC3CCCCC3)ccc2O[C@@H]1CN(C)S(=O)(=O)c1ccc(Cl)cc1 | 0.6
C[C@@H]1CCCCO[C@@H](CN(C)Cc2ccccc2)[C@@H](C)CN([C@H](C)CO)C(=O)c2cc(NS(C)(=O)=O)ccc2O1 | -1.2
C[C@@H]1CN([C@H](C)CO)C(=O)Cc2cc(NC(=O)CCCCCC(=O)Nc3ccccc3N)ccc2O[C@H]1CN(C)S(=O)(=O)c1cccs1 | 1.1
COC(=O)[C@H](Cc1ccc(N=[N+]=[N-])cc1)N1CC2=C[C@@H](C3CC3)n3c(=O)n(C)c(=O)n3[C@H]2[C@@H]1[C@@H](O)Cc1ccccc1 | 0.9
C[C@@H]1CCCCO[C@@H](CN(C)C(=O)C2CCCCC2)[C@H](C)CN([C@H](C)CO)C(=O)c2cc(NC(=O)CCC(F)(F)F)ccc2O1 | -0.5
C[C@H](CO)N1C[C@H](C)[C@H](CN(C)S(=O)(=O)c2ccc(F)cc2)Oc2ccc(N(C)C)cc2CC1=O | 0.8
COc1ccc(NC(=O)N(C)C[C@H]2Oc3ccc(NS(=O)(=O)c4ccc(OC)cc4)cc3CC(=O)N([C@@H](C)CO)C[C@@H]2C)cc1 | -1.3
COC(=O)CCCCCCC(=O)N/N=C/c1cc(OC)c(OC)cc1[N+](=O)[O-] | -1.4
C[C@H](CO)N1C[C@H](C)[C@@H](CN(C)S(=O)(=O)c2cn(C)cn2)Oc2c(NC(=O)c3ccc(-c4nccs4)cc3)cccc2C1=O | -0.3
C[C@@H]1CN([C@H](C)CO)C(=O)c2cccc(NC(=O)C3CCCCC3)c2O[C@H]1CN(C)C(=O)Nc1ccc(F)cc1 | 2.1
C[C@@H]1CN([C@H](C)CO)C(=O)c2cc(NC(=O)CCCCCC(=O)Nc3ccccc3N)ccc2O[C@@H]1CN(C)Cc1ccc(Cl)c(Cl)c1 | 0.2
C[C@@H]1CN([C@@H](C)CO)C(=O)CCCn2cc(nn2)CO[C@@H]1CN(C)S(=O)(=O)c1ccc2c(c1)OCCCO2 | 0.8
C[C@@H]1CN([C@@H](C)CO)C(=O)c2cc(NC(=O)Nc3ccccc3)ccc2O[C@H]1CN(C)C | -0.3
C[C@H](CO)N1C[C@H](C)[C@@H](CN(C)C(=O)Nc2ccccc2)OCCCC[C@H](C)Oc2ccc(N(C)C)cc2C1=O | 1.1
CCCN(C)C[C@@H]1OCc2cn(nn2)CCCC(=O)N([C@H](C)CO)C[C@@H]1C | -1.5
C[C@@H]1CN([C@@H](C)CO)C(=O)c2cccc(NS(=O)(=O)c3cn(C)cn3)c2O[C@H]1CN(C)S(=O)(=O)c1cn(C)cn1 | -0.1
C[C@@H]1CCCCO[C@@H](CN(C)S(=O)(=O)c2ccc(Cl)cc2)[C@H](C)CN([C@@H](C)CO)C(=O)c2cc(NC(=O)Cc3ccccc3)ccc2O1 | 0.1
COc1cc(Br)c(/C=N/NC(=O)c2ccccc2O)cc1OC | 0.2
Cc1noc(C)c1NC(=O)N(C)C[C@@H]1Oc2ccc(NC(=O)NC(C)C)cc2C(=O)N([C@H](C)CO)C[C@@H]1C | -0.2
C[C@@H]1CN([C@@H](C)CO)C(=O)Cc2cc(NC(=O)NC3CCCCC3)ccc2O[C@H]1CN(C)Cc1ccc(Oc2ccccc2)cc1 | 0.5
C[C@H](CO)N1C[C@H](C)[C@@H](CN(C)C(=O)Cc2ccccc2)OCc2cn(nn2)CCCC1=O | -0.3
COc1ccc(S(=O)(=O)Nc2ccc3c(c2)CC(=O)N([C@@H](C)CO)C[C@@H](C)[C@H](CN(C)C(=O)Nc2c(C)noc2C)O3)cc1 | 1.2
Cc1noc(C)c1NC(=O)Nc1ccc2c(c1)CC(=O)N([C@@H](C)CO)C[C@@H](C)[C@H](CN(C)S(=O)(=O)c1cn(C)cn1)O2 | -0.1
C[C@@H]1CN([C@@H](C)CO)C(=O)Cc2cc(NC(=O)CCCN(C)C)ccc2O[C@@H]1CN(C)S(=O)(=O)c1cccs1 | -0.5
C[C@H](CO)N1C[C@H](C)[C@@H](CN(C)Cc2ccc3c(c2)OCO3)OCCCC[C@H](C)Oc2ccc(NS(C)(=O)=O)cc2C1=O | 0.1

The results go on:
structure | A1 apoptosis 2
COc1ccc(S(=O)(=O)N(C)C[C@H]2Oc3ccc(NC(=O)C4CC4)cc3CC(=O)N([C@@H](C)CO)C[C@@H]2C)cc1 | 0.6
C[C@@H]1CN([C@@H](C)CO)C(=O)c2cc(NC(=O)c3ccccc3)ccc2O[C@@H](C)CCCCO[C@H]1CN(C)S(=O)(=O)c1cccs1 | -0.3
C[C@H](CO)N1C[C@H](C)[C@H](CN(C)Cc2ccccc2)Oc2ncc(-c3cccc(C(F)(F)F)c3)cc2C1=O | 0.3
COc1cccc(NC(=O)N(C)C[C@H]2OCc3cn(nn3)CCCC(=O)N([C@H](C)CO)C[C@H]2C)c1 | 0.6
C[C@@H]1CN([C@@H](C)CO)C(=O)Cc2cc(NC(=O)Cn3cnnn3)ccc2O[C@H]1CN(C)S(C)(=O)=O | 0.0
COc1ccc(NC(=O)N(C)C[C@@H]2OCCCC[C@@H](C)Oc3ccc(NC(=O)Nc4ccc(C(F)(F)F)cc4)cc3C(=O)N([C@@H](C)CO)C[C@@H]2C)cc1 | 0.5
COc1ccc(CN(C)C[C@@H]2Oc3ccc(NS(=O)(=O)c4cccs4)cc3CC(=O)N([C@@H](C)CO)C[C@@H]2C)cc1 | -1.3
CNC[C@@H]1Oc2ccc(NS(C)(=O)=O)cc2CC(=O)N([C@H](C)CO)C[C@@H]1C | 1.6

Not all compounds are listed, so the mix of outcomes need not match the whole.
